LDHA block – inhibitors of human lactate dehydrogenase A. activity change, % (values are at about 110 or 230 µM). hit rate 0.15% among 480,000. purified LDHA, NADH/diaphorase-resazurin fluorescence; stronger effect = lower value. P00338; in the data active = activity change below about -30%; inconclusive = mostly about -25% to -30%;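 note: plate controls were DMSO wells for no effect and wells without enzyme for full effect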
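Resorufin fluorescence (ex540/em590), read at 0 and 20 min after diaphorase/resazurin addition, reports the NADH left after a 5 min room-temperature reaction of 2 nM human LDH5 with 0.06 mM NADH and 0.2 mM pyruvate.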
Pol kappa inh – blocks human DNA polymerase kappa activity. Potency, µM (highest dose often 107 µM), inactives show at the top dose activity, negative = inhibition, most hits filed as inhibitors. AID 588579. hit rate 0.53% among 400,000. Q9UBT6. purified Pol kappa, fluorescent DNA synthesis assay, 10 min; note: potency is the fitted concentration of half-maximal effect; % is set by controls: 0 for no effect and ±100 for the full control effect
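Readout: fluorescence, taken kinetically at 0 and 10 min. Conditions: 10 nM Pol kappa, 15 min RT compound preincubation, 50 nM substrate final. Controls: enzyme-free buffer wells.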
GRP78 ERSR act – induces the endoplasmic reticulum stress response in human glioma cells. U87-MG GRP78 promoter luciferase reporter, 16 h. Potency, µM, for the others: at the top dose activation, most hits filed as activators. hit rate 0.02% among 420,000; note: potency is the fitted concentration of half-maximal effect; series mostly up to about 76 µM; % of control where 0% means no effect; nearly all actives have a fitted effect of over 35% in size
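Stably transfected U87-MG glioma cells carrying a GRP78-based luciferase sensor; 16 h compound incubation. Luminescence end-point read 10 min after Bright-Glo addition at room temperature.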
Pol iota inh – blocks human DNA polymerase iota activity | Q9UNA4 | Pol iota fluorescent replication assay, 10 min | Potency, µM (doses to about 115 µM), inactives show top-dose activity, negative = inhibition, hits mostly inhibitors | hit rate 1% among 390,000; note: potency is the fitted concentration of half-maximal effect
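Pol iota at 10 nM preincubated 15 min with compounds at room temperature; reaction started with fluorescent substrate, 50 nM final. Fluorescence read kinetically at 0 and 10 min; buffer-only wells as negative control.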
BLM inh – blocks DNA unwinding by human BLM helicase; recombinant BLM DNA unwinding, fluorescence dequenching; hit rate 0.2% among 350,000; Potency, µM (highest dose often 56.1 µM), for inactives: at the top dose activity change, negative = inhibition, most hits filed as inhibitors; P54132;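 note: potency is the fitted concentration of half-maximal effect; plate controls were vehicle for no effect and no enzyme for full effect; nearly all actives have a fitted effect of over 35% in size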
* = called active by the depositor; ? = inconclusive; / = not tested or not shown; & = joins results of further samples; [ ] = remark or other dose. Unless noted, calls come from the whole dose curve; as a rule, active = well fitted curve in the direction sought with a large enough effect; inconclusive = small, poorly fitted or top-dose-only effect, or another doubt; inactive = no such curve, though single readings can be large; an effect the other way counts as inactive or inconclusive.

SMILES	LDHA block	Pol kappa inh	GRP78 ERSR act	Pol iota inh	BLM inh
CNC(C)C(O)c1ccccc1 (stereo not given)	/	-8%[60.1 µM]	-5%	/	5%
O=C(Cc1cccs1)N1Cc2ccccc2-n2nncc2C1	-1	/	0%	/	/
CN1CCN(Cc2ccc(Br)s2)CC1	?	-1%	-3%	-20%	4%
O=c1[nH]oc2c1CCNC2	0	2%[60.1 µM]	-4%&-1%&-3%&-1%&-3%&-3%	0%	1%
CC[C@H]1CN2CCc3cc(OC)c(OC)cc3[C@H]2C[C@@H]1C[C@@H]1NCCc2cc(OC)c(OC)cc21	/	1%[60.1 µM]	-1%	/	-6%
CNC(=O)Oc1cccc2ccccc12	1	-1%	-1%&-4%	1%	-2%&1%
CC(=O)N1CCN(c2ccc(OC[C@@H]3CO[C@@](Cn4ccnc4)(c4ccc(Cl)cc4Cl)O3)cc2)CC1	6&5	-14%	-2%&-5%&-5%	-16%&10%	2%
C=C(C)[C@H]1CC[C@]2(C(=O)O)CC[C@]3(C)[C@@H](CC[C@H]4[C@@]5(C)CC[C@@H](O)C(C)(C)[C@@H]5CC[C@@]43C)[C@H]12	/	?	-4%	/	0%[21.4 µM]
c1ccc(OCC2CO2)cc1 (stereo not given)	-12	-3%	-1%	-10%	/

Ordered by length of the SMILES (descending): part of the list above.
SMILES	LDHA block	Pol kappa inh	GRP78 ERSR act	Pol iota inh	BLM inh
CC(=O)N1CCN(c2ccc(OC[C@@H]3CO[C@@](Cn4ccnc4)(c4ccc(Cl)cc4Cl)O3)cc2)CC1	6&5	-14%	-2%&-5%&-5%	-16%&10%	2%
CN1CCN(Cc2ccc(Br)s2)CC1	?	-1%	-3%	-20%	4%
CNC(=O)Oc1cccc2ccccc12	1	-1%	-1%&-4%	1%	-2%&1%
CNC(C)C(O)c1ccccc1 (stereo not given)	/	-8%[60.1 µM]	-5%	/	5%

Some values from the entries so far:
`CN1CCN(Cc2ccc(Br)s2)CC1` | Pol kappa inh = -1%
`O=c1[nH]oc2c1CCNC2` | Pol iota inh = 0%
`CNC(C)C(O)c1ccccc1` (stereo not given) | Pol kappa inh = -8%[60.1 µM]
`CC(=O)N1CCN(c2ccc(OC[C@@H]3CO[C@@](Cn4ccnc4)(c4ccc(Cl)cc4Cl)O3)cc2)CC1` | GRP78 ERSR act = -2%&-5%&-5%

Profiles as entered above. Values in the order: LDHA block, Pol kappa inh, GRP78 ERSR act, Pol iota inh, BLM inh
O=c1[nH]oc2c1CCNC2 is entered as 0, 2%[60.1 µM], -4%&-1%&-3%&-1%&-3%&-3%, 0%, 1%
C=C(C)[C@H]1CC[C@]2(C(=O)O)CC[C@]3(C)[C@@H](CC[C@H]4[C@@]5(C)CC[C@@H](O)C(C)(C)[C@@H]5CC[C@@]43C)[C@H]12 is entered as /, ?, -4%, /, 0%[21.4 µM]

Compound activity from PubChem BioAssay.

These rows are one share of the data (hit frequency here may not be typical).
